Calb FLC: C. albicans growth inhibition with fluconazole, primary screen, CaCi-2 strain, Alamar Blue fluorescence. 0.57% of 300,000 active. C. albicans CaCi-2 (fluconazole-resistant clinical isolate) + fluconazole, 48 h. growth inhibition, % (test concentration not listed). AID 1979, 2009;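 active = most replicates above 75%; inconclusive = exactly half above 75%; inactive = most below 75%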;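 also: all wells also contain fluconazole at 8 µg/ml as a sub-toxic cotreatment; 0% = median of DMSO wells and 100% = median of geldanamycin control wells; wells of about 8 µL received 7.5 nL stock; the first replicate is given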
LANA-H2A inh: blockers of LANA interaction with H2A/H2B – biochemical, FP readout, HTS, primary screen; Protein LANA1 (Human herpesvirus 8 type P (isolate GK18)), Q9QR71; cell-free LANA-H2A/H2B peptide, fluorescence polarization; inhibition, % (test concentration not listed); 0.6% of 320,000 active; in the data active = inhibition mostly above about 10%, no sharp cut-off; inactive = mostly below about 6.7%;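 also: stock transfer was 7.5 nL into about 10 µL; 0% = median of vehicle wells and 100% = median of positive control wells; one replicate is shown; the record names a cut of 25% in any replicate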
Vif TR-FRET: inhibitors of Vif binding to APOBEC3G peptide, primary screen, biochemical, TR-FRET, GST-Vif 1-94, biotin-A3G peptide, dose response retest (AID 1117319). 0.57% of 260,000 active. TR-FRET GST-Vif / biotin-A3G peptide binding; higher % means a stronger effect; test concentration not given here; strong numbers were not always called active. inhibition, %; hits with a dose series show IC50 in µM. Virion infectivity factor (Human immunodeficiency virus type 1 group M subtype B (isolate …;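 active = above the screen mean plus three standard deviations and confirmed in dose response; inconclusive = results disagree or hit not tested in dose response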;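 also: Vif residues 1-94 fused to GST binding biotinylated APOBEC3G peptide 110-148; 0% = full assay without inhibitor and 100% = GST in place of GST-Vif; retest series ran down from 100 µM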
Beta cell apopt: inhibitors of cytokine-induced beta cell apoptosis, primary screen, luminescence | protection from apoptosis, % (concentration not given with the values) | 0.8% of 300,000 active | INS-1E cytokine-induced death, ATP luminescence, 48 h; percent of positive-control rescue, neutral wells zero;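 active = all replicates at 75% or more, or half of them and the mean; inconclusive = half reach 75% but not the mean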;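 also: 0% = cytokine-treated negative control wells and 100% = positive control rescue; higher means more ATP so stronger rescue from cytokine killing; wells of about 40 µL received 100 nL stock; the first replicate is given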
MLL AF4-AF9 inh: inhibitors of AF4 peptide binding to AF9, primary screen, biochemical, AlphaScreen, biotin-AF4 peptide, FLAG-AF9, single point; Protein AF-9 (Homo sapiens), P42568; inhibition, % at 10 µM; 0.47% of 350,000 active; AID 651704, 2012;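 active = every replicate reaching a set inhibition limit, whatever the replicate mean, cut at about 25% in these data; inconclusive = mean inhibition reaches that limit but some replicates miss it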;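 also: 0% = plate neutral control median and 100% = total signal loss; the record names both 10 and 1 µM as test concentration; the first replicate is given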
Target sequence (P42568 whole entry, looked up): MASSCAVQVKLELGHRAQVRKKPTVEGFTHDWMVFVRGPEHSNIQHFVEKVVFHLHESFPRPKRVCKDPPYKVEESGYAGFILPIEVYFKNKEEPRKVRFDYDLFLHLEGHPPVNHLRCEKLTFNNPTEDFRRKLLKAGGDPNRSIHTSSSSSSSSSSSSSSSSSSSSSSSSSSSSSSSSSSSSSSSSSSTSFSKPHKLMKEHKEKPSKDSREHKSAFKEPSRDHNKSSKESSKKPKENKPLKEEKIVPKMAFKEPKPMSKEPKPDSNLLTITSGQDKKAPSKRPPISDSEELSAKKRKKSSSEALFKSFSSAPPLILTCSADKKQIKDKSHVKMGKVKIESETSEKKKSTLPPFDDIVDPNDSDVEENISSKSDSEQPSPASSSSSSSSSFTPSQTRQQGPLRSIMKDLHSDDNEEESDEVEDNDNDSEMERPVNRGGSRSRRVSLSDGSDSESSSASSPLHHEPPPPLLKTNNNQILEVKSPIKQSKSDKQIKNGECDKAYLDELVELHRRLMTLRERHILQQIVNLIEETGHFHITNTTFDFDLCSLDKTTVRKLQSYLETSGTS
T cruzi inh: inhibitors of intracellular T. cruzi growth, primary screen, luminescence, NIH3T3 host cells; T. cruzi beta-gal in NIH3T3, 90 h; inhibition, % (test concentration not listed); 1.4% of 300,000 active; AID 1885, 2009;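 active = mean inhibition across valid replicates above about 55%, limit read from the data; inconclusive = mean below that limit but half or more replicates reach it; inactive = mean below it, under half of replicates reach it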;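 also: signal also drops with host cell toxicity which is not excluded here; 0% = plate median of DMSO wells and 100% = zero luminescence signal; higher percent means less beta-gal luminescence so fewer parasites; stock transfer was 50 nL into about 50 µL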
Bfl-1 A1 inh: caspase 3/7 activation in MEF A1-2A-BIM cells, primary screen, A1 inhibitor project, cell-based, luminescence, HTS. Caspase-Glo 3/7 luminescence, 3 h; percent of clofoctol response, vehicle zero. caspase activation, % (test concentration not listed). 0.066% of 330,000 active. AID 2462, 2010;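 active = over half of replicate activation scores above 10%, or exactly half above 10 with the replicate mean above 10; inconclusive = replicate mean below 10 yet half the replicates above 10; inactive = over half of replicates below 10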;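 also: wells of about 30 µL received 50 nL stock; many hits fall short of the cut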
RanGTP-Impb inh: inhibitors of RanGTP-importin-beta interaction, primary screen, biochemical, FRET, CFP-Ran, YFP-importin-beta, homogeneous; Ran GTPase (GTP-bound) - importin-beta complex; 1.1% of 300,000 active; cell-free CFP-Ran/YFP-importin-beta FRET ratio; AID 2216, 2009; inhibition, % (test concentration not listed);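 active = most replicates above 15%; inconclusive = exactly half above 15%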;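 also: 0% = DMSO wells and 100% = Ran loaded with GDP instead of GTP; wells of about 40 µL received 100 nL stock; the first replicate is given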
Starred values were filed as active, the others as inactive; ? = inconclusive; . = no result given.

SMILES | Calb FLC | LANA-H2A inh | Vif TR-FRET | Beta cell apopt | MLL AF4-AF9 inh | T cruzi inh | Bfl-1 A1 inh | RanGTP-Impb inh
N/C(COc1cccc(Cl)c1)=N\NS(=O)(=O)c1ccccc1 | -7 | -3.9 | -4% | -3 | . | 2 | -0.9 | 4.0
CC(C)(C)NC(=O)C(c1cccnc1)N(C(=O)c1ccc(Cl)nc1)C1CCCC1 (stereo not drawn) | 0 | 5.1 | -10% | 2 | 1.6 | -1 | -0.1 | 3.8
COc1ccc(CN(Cc2ccccn2)C(=O)CN2C(=O)COc3ccccc32)cc1 | 15 | -1.0 | 0% | 6 | 4.5 | 1 | 0.7 | -1.5
CCOc1cc(C2C3=C(CC(C)(C)CC3=O)OC3=C2C(=O)CC(C)(C)C3)cc([N+](=O)[O-])c1O | 57 | -0.6 | -4% | 4 | 0.3 | 13 | -0.2 | -2.0
Cc1cc(C)n2nc(-c3ccco3)nc2n1 | 9 | -1.3 | -5% | 3 | 2.7 | -11 | -0.5 | 8.9
Cc1ccnc(NS(=O)(=O)c2ccc(NS(=O)(=O)c3ccc([N+](=O)[O-])cc3)cc2)n1 | -10 | 1.0 | -4% | -4 | -2.6 | -6 | 1.8 | 0.8
CC(Sc1nc(N2CCOCC2)c2c(c1C#N)CC(C)(C)OC2)C(=O)O (stereo not drawn) | 1 | 2.5 | -7% | -4 | -0.1 | -12 | 1.1 | ?
CC(=O)Nc1cccc(C(=O)/C=C/c2ccc(Br)cc2)c1 | -12 | -7.0 | 6% | 0 | 1.2 | 0 | -0.2 | 0.4
CN(C(=O)Cn1cc([N+](=O)[O-])ccc1=O)C1CCCCC1 | . | 1.8 | -2% | -1 | -1.2 | . | 0.4 | .
CCC(CO)Oc1cc(NC(=O)c2ccc(Cl)cc2)c2ncn(C(C)C)c2c1 (stereo not drawn) | . | 2.1 | . | 3 | 0.1 | . | -1.1 | .
Cc1ccc(NS(=O)(=O)c2cc(C(=O)N3CCOCC3)ccc2C)cc1C | 9 | 6.5 | 4% | -1 | . | -4 | 1.0 | -8.8
Cc1cc(NC(=O)CSc2ccc3nnc(-c4cccs4)n3n2)no1 | -5 | 2.4 | 1% | -3 | -11 | 11 | -0.4 | 0.9
Cc1ccc2c(c1)N(CC(=O)NC1CCCC1)C(=O)CO2 | 5 | 1.9 | . | -4 | 0.1 | -18 | 0.3 | 2.1
CCOC(=O)C1=C(C)C(c2ccccc2OC)NC(=O)N1 (stereo not drawn) | -4 | -0.4 | 26% | . | . | -25 | 1.4 | 4.7
CC(=O)c1cccc(NC(=O)c2cc(C)nn2-c2ccccc2)c1 | -5 | -2.4 | 4% | 0 | -1.2 | -4 | -1.0 | -4.1
O=c1c2ccccc2[nH]c(=S)n1Cc1ccccc1 | 11 | -3.4 | . | -8 | -3.8 | -20 | 0.1 | 0.7
CCOc1ccc(C(=O)Nc2c(C(=O)N3CCC(N4CCCCC4)CC3)oc3ccccc23)cc1 | 1 | 1.9 | . | -4 | 5.4 | 58* | -0.7 | -0.4
Cc1ccc(NC(=O)CCCCCNS(=O)(=O)c2ccc(C)cc2)cc1 | 2 | 0.8 | -7% | -3 | . | 10 | -0.8 | -0.1
O=C(Nc1cc(C2CC2)nn1-c1ccccc1)c1ccc(F)cc1 | . | -0.4 | . | -1 | -6.6 | . | 0.2 | .
COc1ccc(NC(=O)CSCCc2ccccn2)cc1OC | 2 | -1.6 | -6% | 3 | 1.3 | -8 | -0.6 | 3.9
CC(=O)c1cccc(Nc2cc(C)nc3ccc(C)cc23)c1 | -4 | -0.6 | 15% | 10 | 3.0 | 7 | 0.3 | 5.8
Cc1ccc(C)c(S(=O)(=O)C(C#N)c2nc3ccccc3nc2N2CCOCC2)c1 (stereo not drawn) | -34 | 0.8 | 25% | 5 | . | 8 | -0.2 | 6.4
Cc1ccc2c(c1)N(CCC(=O)NCc1cccnc1)C(=O)CO2 | 25 | -0.5 | 0% | -4 | . | -12 | 1.2 | -1.9
O=C(Nc1cccnc1Cl)C1=NN(c2ccccc2)C(=O)CC1 | 19 | -3.1 | . | -5 | 0.9 | 27 | 0.6 | 2.7
O=C(Nc1ccccc1)c1ccccc1NC(=O)[C@H]1CCCC[C@H]1C(=O)O | -1 | 11 | . | 0 | -0.9 | -13 | -0.5 | 5.9
Cc1c(Cl)cccc1NC(=O)CSc1nnc(C)n1CC1CCCO1 (stereo not drawn) | 1 | 0.0 | 7% | 3 | -1.5 | -14 | -0.1 | 2.4
CC(OC(=O)Cc1c[nH]c2ccccc12)C(=O)NC1(C#N)CCCCC1 (stereo not drawn) | -3 | -4.7 | 6% | 1 | 1.5 | 6 | -0.5 | -5.0
O=C(NC1CCS(=O)(=O)C1)C12CC3CC(CC(C3)C1)C2 (stereo not drawn) | -19 | 4.4 | ? | -2 | 2.1 | -42 | -1.2 | -1.3
O=C(CSc1nc(-c2ccc(F)cc2)cs1)Nc1ccccn1 | ? | 0.2 | -2% | 3 | -2.1 | -4 | -0.6 | -1.9
CN(C)S(=O)(=O)N1CCCC(C(=O)c2ccc(C(F)(F)F)cc2)C1 (stereo not drawn) | 3 | 1.0 | -6% | -3 | -1.2 | 8 | -0.8 | -0.6
OC(c1ccccc1)(C1CCCCC1)C(CN1CCOCC1)c1ccccc1 (stereo not drawn) | 2 | -11 | 0% | 5 | 2.4 | 9 | 0.7 | -1.6
O=C(CC1(O)C(=O)Nc2ccc(Br)cc21)c1ccc2c(c1)OCO2 (stereo not drawn) | -40 | 1.6 | -2% | -14 | . | -17 | 0.4 | -3.1
Cc1cccc(/C=N\Nc2cn[nH]c(=O)c2Cl)c1 | ? | 2.8 | 3% | -4 | . | 1 | -8.9 | 2.6
Cc1ccc(N(CC(=O)N2CCCC2)S(C)(=O)=O)cc1C | -1 | 5.5 | -3% | -1 | 3.8 | -6 | -0.2 | 4.8
COc1ccc(Cc2nc3ccc(C(=O)NCC4COCCO4)cc3o2)cc1OC (stereo not drawn) | 5 | . | 0% | . | 0.7 | -15 | . | 3.4
COC(=O)c1ccc(NC(=O)CSc2nc(=O)n3cccc(C)c3n2)cc1 | 7 | -0.7 | 0% | . | -0.6 | -3 | -0.3 | 1.5
Cc1cc(C)nc(NS(=O)(=O)c2ccc(NC(=O)C3COc4ccccc4O3)cc2)n1 (stereo not drawn) | -2 | -2.4 | . | . | -1.2 | -4 | 0.6 | -2.9
Cc1cccc(NC(=O)N2CCN(Cc3ccccc3)CC2)c1 | ? | 3.8 | -2% | 1 | . | -2 | -0.8 | 3.4
O=CN1CCN(C(=O)c2ccc(-c3nc4ccccc4s3)s2)CC1 | -8 | -2.9 | . | -7 | 2.0 | -4 | -0.6 | -4.2
COCc1nnc(NC(=O)c2ccc(S(=O)(=O)N3CCCC3)cc2)o1 | 1 | -4.5 | . | -2 | 0.2 | -6 | 0.8 | 4.2
COc1ccccc1NC(=O)NC1(C(=O)N2CCOCC2)CCCCC1 | 3 | -1.9 | . | -4 | -3.1 | -6 | 0.4 | 2.8
COc1ccc(-c2csc3nc(-c4ccccc4F)oc(=O)c23)cc1 | -4 | 7.3 | . | -7 | -3.0 | -30 | -0.6 | -3.8
COc1ccc(NC(=O)c2ccccc2NS(=O)(=O)c2ccc(CNC(C)=O)cc2)c(OC)c1 | -4 | 12 | 0% | -3 | 0.1 | 3 | -0.7 | -2.8
O=C(Nc1ccc(CN2CCOCC2)cc1)c1cc(Cl)ccc1Cl | -5 | -1.7 | . | . | -1.2 | -13 | -0.2 | -1.6
O=C1C=C(N2CCOCC2)C2(CCCCC2)O1 | 1 | 4.1 | -2% | . | -1.9 | -3 | -0.7 | -0.3
Cc1ccc(-n2nnnc2SCC(=O)Nc2ccccc2N2CCCCC2)cc1C | -16 | 3.5 | 0% | 3 | . | 43 | -1.0 | -2.3
Cc1c(C(=O)NN)[nH]c2ccc([N+](=O)[O-])cc12 | 8 | 1.6 | -3% | 0 | 1.7 | -20 | 0.2 | -0.6
CC1=CC2=NC(=O)CC(C)(C(=O)N(CC(=O)NC(C)(C)C)Cc3ccccc3)N2C=C1 (stereo not drawn) | 5 | -4.1 | 6% | -4 | -3.9 | -11 | 0.9 | 3.3
CCC(C)N=C1SCC(C)(/C=N/O)S1 (stereo not drawn) | 2 | -5.3 | ? | -3 | . | -27 | 1.2 | 1.8
CCOCCn1c(SCCc2ccccc2)nc2c1c(=O)[nH]c(=O)n2C | 1 | 0.6 | 17% | 6 | 1.8 | -5 | 0.7 | -2.2

Additional compounds follow:
SMILES | Calb FLC | LANA-H2A inh | Vif TR-FRET | Beta cell apopt | MLL AF4-AF9 inh | T cruzi inh | Bfl-1 A1 inh | RanGTP-Impb inh
COc1ccccc1NC(=O)C(C(C)C)N1C(=O)c2ccccc2C1=O (stereo not drawn) | 4 | -2.2 | . | -1 | 4.4 | -21 | 0.5 | 2.4
Cc1cccc(SCc2noc(C(=O)NCC3CCCO3)c2C(=O)O)c1 (stereo not drawn) | 6 | -1.6 | -1% | -7 | -6.5 | -2 | 0.7 | 3.6
c1cncc(-c2nn3cnnc3s2)c1 | 5 | -1.9 | -4% | -5 | . | 2 | 0.4 | ?
Cc1ccc(C(=O)N2CC(C)OC(C)C2)cc1[N+](=O)[O-] (stereo not drawn) | -4 | -2.1 | . | -1 | -1.0 | -10 | -0.5 | 1.4
Cc1ccc(C(=O)Nc2ccc(C(=O)O)cc2)cc1S(=O)(=O)Nc1cccc([N+](=O)[O-])c1 | -8 | -1.1 | ? | 3 | -15 | -10 | 1.0 | 5.2
C=CCC1Cc2c(cccc2[N+](=O)[O-])C(CC=C)N1 (stereo not drawn) | -15 | -0.9 | 28% | -14 | -3.0 | 3 | 0.4 | -2.8
O=C(CSc1nnc(CNC(=O)c2ccc(F)cc2)o1)NCc1ccccc1Cl | -2 | -3.3 | 5% | . | -1.5 | -3 | 0.6 | 1.0
COC(C(=O)N/N=C(\C)CC(=O)Nc1ccc(N(C)C)cc1)c1ccccc1 (stereo not drawn) | -9 | -1.4 | 3% | -5 | 11 | 3 | -1.0 | 0.1
O=C(CSc1nnc(-c2ccccc2Cl)o1)N1CCCC1 | -3 | -4.3 | . | -2 | 1.4 | 1 | -1.5 | -2.9

Part of the list above, as labelled records.
> c1cncc(-c2nn3cnnc3s2)c1
  Calb FLC: 5
  LANA-H2A inh: -1.9
  Vif TR-FRET: -4%
  Beta cell apopt: -5
  MLL AF4-AF9 inh: .
  T cruzi inh: 2
  Bfl-1 A1 inh: 0.4
  RanGTP-Impb inh: ?

> Cc1ccc(C(=O)N2CC(C)OC(C)C2)cc1[N+](=O)[O-] (stereo not drawn)
  Calb FLC: -4
  LANA-H2A inh: -2.1
  Vif TR-FRET: .
  Beta cell apopt: -1
  MLL AF4-AF9 inh: -1.0
  T cruzi inh: -10
  Bfl-1 A1 inh: -0.5
  RanGTP-Impb inh: 1.4

Assay outcomes (PubChem)

Rows are unselected (roughly 4.3% active in at least one column).
